Compound activity as filed in PubChem.
TrxR1 inh: rat TrxR1 inhibition. O89049. recombinant rTrxR1, NADPH fluorescence consumption, selenite substrate. AID 588453. Potency, µM (highest dose often 114 µM), without a hit: top-dose activity change, negative = inhibition, usual class: inhibitors. 390,000 tested, 1% active; further: potency means the concentration at half of the fitted maximal effect; on the % scale 0 is the no-effect control and ±100 the full control effect; nearly all actives have a fitted effect of over 65% in size
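Rat TrxR1 (90 nM in the dispensed reagent) was pre-reduced with 400 uM NADPH for 5 min at room temperature, then incubated with compound for 15 min. After 400 uM selenite was added, NADPH fluorescence (Ex 340/Em 450 nm) was followed for 8 min.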
TrxR1 substrate: is turned over as a substrate by rat TrxR1; O89049; 390,000 tested, 0.01% active; Potency, µM (top dose mostly 114 µM), for inactives: at the top dose activity change, negative = substrate turnover; purified TrxR1 substrate turnover, NADPH consumption readout; AID 588456; further: potency means the concentration at half of the fitted maximal effect; on the % scale 0 is the no-effect control and ±100 the full control effect; nearly all actives have a fitted effect of over 50% in size
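Rat TrxR1, dispensed at 90 nM, was prereduced with 400 uM NADPH (final) for 5 min at ~22 deg C, then incubated with compound 15 min before 400 uM selenite. A first-read NADPH fluorescence drop versus no-compound background flagged substrates.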
Pin1 inh: inhibitors of human Pin1. Pin1 FP peptide displacement, HiFluor488, 10 min. Potency, µM (doses to about 115 µM), inactives show at the top dose activity, negative = inhibition, actives largely listed as inhibitors. 390,000 tested, 0.009% active; active means well fitted inhibition curve with a large enough effect in the polarisation, with a control signal flat, not every such curve was filed as active; inconclusive means small, poorly fitted or top-dose-only effect, or effect the other way, or a change in a side signal; inactive means no such curve, though single readings can be large or run the other way; the % refers to the polarisation; further: potency means the concentration at half of the fitted maximal effect; on the % scale 0 is the no-effect control and ±100 the full control effect
Target sequence (Q13526 whole entry, looked up): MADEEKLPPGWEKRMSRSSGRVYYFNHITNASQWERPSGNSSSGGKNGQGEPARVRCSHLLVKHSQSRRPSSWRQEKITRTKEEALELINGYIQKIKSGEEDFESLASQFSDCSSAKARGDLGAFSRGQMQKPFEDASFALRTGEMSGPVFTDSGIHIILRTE
D2 antagonist: antagonizes the human D2 dopamine receptor; P14416; 340,000 tested, 2% active; inhibition, % at 10 µM; HEK293 TREx D2 cells, calcium flux, dopamine EC80; in the data active means inhibition above about 30%; further: 0% is about no effect
Target sequence (P14416 whole entry, looked up): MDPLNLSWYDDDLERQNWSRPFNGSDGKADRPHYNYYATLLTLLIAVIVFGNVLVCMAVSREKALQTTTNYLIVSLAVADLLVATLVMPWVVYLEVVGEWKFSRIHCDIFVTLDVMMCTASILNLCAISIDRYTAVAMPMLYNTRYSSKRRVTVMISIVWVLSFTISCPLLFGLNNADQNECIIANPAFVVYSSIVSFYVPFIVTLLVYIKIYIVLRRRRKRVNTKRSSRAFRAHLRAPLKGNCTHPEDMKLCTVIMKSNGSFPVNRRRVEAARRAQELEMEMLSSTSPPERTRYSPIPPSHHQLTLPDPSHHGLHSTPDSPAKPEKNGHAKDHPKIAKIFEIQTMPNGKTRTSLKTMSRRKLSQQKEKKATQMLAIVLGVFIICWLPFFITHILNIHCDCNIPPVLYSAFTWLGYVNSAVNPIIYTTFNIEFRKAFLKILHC
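Dopamine at EC80 is the agonist stimulus; test compounds precede it by 180 s. Calcium flux read kinetically in a force-coupled, inducible HEK293 T-REx D2 cell line.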
USP1 inh: USP1/UAF1 (human) deubiquitinase inhibition; O94782; recombinant USP1/UAF1, Ub-Rhodamine cleavage fluorescence; Potency, µM (top dose mostly 57.1 µM), for the others: at the highest dose activity change, negative = inhibition, hits mostly inhibitors; 390,000 tested, 0.23% active; AID 743255; further: potency means the concentration at half of the fitted maximal effect; on the % scale 0 is the no-effect control and ±100 the full control effect; nearly all actives have a fitted effect of over 60% in size; inactives centre near -12
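1 nM enzyme complex + cpd, 15 min RT; start with Ub-Rho 150nM final; kinetic fluorescence ex 480/em 540, 6 reads q60 s. Buffer 50mM HEPES pH 7.8, 0.5mM EDTA, 0.1 mg/ml BSA, 1mM TCEP, 0.01% Tween-20.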
D2 ag: D2 dopamine receptor (human) agonism | P14416 | HEK293 T-REx D2 cells, calcium flux agonist mode | activation, % at 2 µM | 340,000 tested, 0.53% active | AID 485358;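 active means activation over 3 SD above normal in the single-dose calcium agonist read, cut at about 30% in these data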; further: 0% is about no effect
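In this primary screen, compounds producing a positive calcium signal within 180 s of addition to tetracycline-induced, force-coupled HEK293 Trex D2 cells are flagged; cells are dye-loaded with a no-wash calcium kit beforehand.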
IDH1 R132H inh: human IDH1 R132H inhibition; IDH1-R132H enzyme, NADPH consumption, diaphorase/resazurin fluorescence; AID 602179; 390,000 tested, 0.093% active; Potency, µM (series often up to 76.6 µM), without a hit: top-dose activity change, negative = inhibition, most hits filed as inhibitors; further: potency means the concentration at half of the fitted maximal effect; on the % scale 0 is the no-effect control and ±100 the full control effect; nearly all actives have a fitted effect of over 65% in size
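IDH1-R132H (0.5 ug/mL dispensed) in pH 7.5 Tris buffer was preincubated 30 min with compound, then given a substrate mix of 0.016 mM NADPH and 2 mM alpha-KG for 80 min at room temperature; remaining NADPH was read by diaphorase/resazurin fluorescence.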
Starred values were filed as active, the others as inactive; ? = inconclusive; . = not tested or not shown; & = joins results of further samples; [ ] = dose if it differs, or a comment. Unless noted, the call rests on the fitted dose curve; in most records, active means well fitted inhibition curve with a large enough effect; inconclusive means small, poorly fitted or top-dose-only effect; inactive means no such curve, though single readings can be large or run the other way.

entry	Compound	TrxR1 inh	TrxR1 substrate	Pin1 inh	D2 antagonist
1	CCOc1ccccc1N	8%	7%	1%	-9
2	CCC(C)(CN(C)C)OC(=O)c1ccccc1 (stereo not drawn)	-25%	-8%	2%	.
3	O=C(O)c1ccccc1C(=O)O	21%	15%	-6%	1
4	CC1(C)O[C@@H]2CC3C4C[C@H](F)C5=CC(=O)C=CC5(C)C4C(O)CC3(C)[C@]2(C(=O)CO)O1 (stereo partly drawn)	17%	-1%	-2%	-1
5	CC(C)(C#N)c1cc(Cn2cncn2)cc(C(C)(C)C#N)c1	.	.	.	18
6	O=c1[nH]cnc2c1ncn2[C@H]1CC[C@@H](CO)O1	1%&4%	5%&2%	0%&0%	5
7	N=c1ccn2c(n1)O[C@H]1[C@@H](O)[C@@H](CO)O[C@H]12	-2%	.	.	.
8	N=c1ccn2c(n1)O[C@H]1[C@H](O)[C@@H](CO)O[C@H]12	0%[57.1 µM]	3%[57.1 µM]	-1%	4

entry	USP1 inh	D2 ag	IDH1 R132H inh
1	-30%	1.1	-8%
2	-6%	.	-8%
3	-17%	-0.6	11%
4	-9%	1.2	11%
5	.	-1.0	.
6	-17%	0.4	7%
7	.	.	.
8	-19%	0.5	4%

Additional entries follow:
entry	Compound	TrxR1 inh	TrxR1 substrate	Pin1 inh	D2 antagonist
9	Cn1c(=O)c2c(ncn2C)n(C)c1=O	15%[57.1 µM]	6%[57.1 µM]	3%	-5
10	CNC(C)C(=O)NC(C(=O)N1CCCC1C(=O)NNc1ccccc1)C(C)C (stereo not drawn)	12%[57.1 µM]	8%[57.1 µM]	0%	-8
11	O=C(Nc1ccc([N+](=O)[O-])cc1Cl)c1cc(Cl)ccc1O	?	8%[57.1 µM]	-6%	4
12	CC(=O)OCC(=O)[C@@]1(O)CC[C@H]2[C@@H]3CCC4=CC(=O)CC[C@]4(C)[C@H]3[C@@H](O)C[C@@]21C	12%&0%	5%&3%	-1%&-1%	-44
13	Cn1c([N+](=O)[O-])cnc1COC(N)=O	18%	-5%	0%	-24
14	CC1(C)S[C@@H]2[C@H](NC(=O)[C@H](N)c3ccccc3)C(=O)N2[C@H]1C(=O)OC1OC(=O)c2ccccc21 (stereo partly drawn)	15%	7%	-9%	-1
15	CC[N+](C)(C)Cc1ccccc1Br	16%&5%	8%	-3%	-5
16	Cc1c(O)cccc1C(=O)N[C@@H](CSc1ccccc1)[C@H](O)CN1C[C@H]2CCCC[C@H]2C[C@H]1C(=O)NC(C)(C)C	37%&11%[activator]	2%&0%	3%&-1%	8

entry	USP1 inh	D2 ag	IDH1 R132H inh
9	-10%	-0.9	9%
10	-15%	0.7	10%
11	-14%	2.5	10%
12	-13%&-10%	-2.5	-8%&-4%
13	16%	1.0	-4%
14	7%	-0.7	16%
15	-16%	1.0	-7%
16	-24%&-13%	-0.1	-3%&-6%

More entries follow:
entry	Compound	TrxR1 inh	TrxR1 substrate	Pin1 inh	D2 antagonist
17	CC(CCC(=O)O)C1CCC2C3C(O)CC4CC(O)CCC4(C)C3CC(O)C12C (stereo not drawn)	5%	-5%	11%	-9
18	O=c1[nH]sc2ccccc12	91%[activator][57.1 µM]	-16%	2%	-14
19	CN(C)Cc1cc(C(C)(C)C)c(O)c(C(C)(C)C)c1	8.9µM*	12%[57.1 µM]	-1%	-4
20	CCc1nc(N)nc(N)c1-c1ccc(Cl)cc1	-1%	-7%	2%	-3
21	Cc1c(N(C)C)c(=O)n(-c2ccccc2)n1C	46%&7%[activator]	14%&-2%	1%	2
22	COC(=O)Cn1c(C)c(/C=C/c2cc[n+](C)cc2)c2ccccc21	-22%	-19%	?	5
23	CC(=O)Nc1ccc(N)cc1	29%	4%	-3%	-2
24	O=C1c2c(O)cccc2Cc2cccc(O)c21	5%[57.1 µM]	5%[57.1 µM]	14%	-6

entry	USP1 inh	D2 ag	IDH1 R132H inh
17	-16%	0.2	-3%
18	3%	0.6	9%
19	-7%	-0.3	20%
20	14%	6.0	-6%
21	-21%	0.6	4%
22	?	8.6	-1%
23	-15%	0.2	3%
24	-23%	-1.4	11%

Full records from above. Screens in order: TrxR1 inh | TrxR1 substrate | Pin1 inh | D2 antagonist | USP1 inh | D2 ag | IDH1 R132H inh
Shown for O=C1c2c(O)cccc2Cc2cccc(O)c21 → 5%[57.1 µM] | 5%[57.1 µM] | 14% | -6 | -23% | -1.4 | 11%
Shown for COC(=O)Cn1c(C)c(/C=C/c2cc[n+](C)cc2)c2ccccc21 → -22% | -19% | ? | 5 | ? | 8.6 | -1%
Shown for CCc1nc(N)nc(N)c1-c1ccc(Cl)cc1 → -1% | -7% | 2% | -3 | 14% | 6.0 | -6%
Shown for CC(CCC(=O)O)C1CCC2C3C(O)CC4CC(O)CCC4(C)C3CC(O)C12C (stereo not drawn) → 5% | -5% | 11% | -9 | -16% | 0.2 | -3%
Shown for Cc1c(N(C)C)c(=O)n(-c2ccccc2)n1C → 46%&7%[activator] | 14%&-2% | 1% | 2 | -21% | 0.6 | 4%

Results in sequence from the entries so far:
D2 ag, compounds 17–24, in order: 0.2, 0.6, -0.3, 6.0, 0.6, 8.6, 0.2, -1.4
USP1 inh, compounds 17–24, in order: -16%, 3%, -7%, 14%, -21%, ?, -15%, -23%

The list goes on.
entry	Compound	TrxR1 inh	TrxR1 substrate	Pin1 inh	D2 antagonist
25	O=C(O)c1cc(=O)c2c(OCC(O)COc3cccc4oc(C(=O)O)cc(=O)c34)cccc2o1	-4%	-3%	-4%	-4
26	C[C@H](CCC(=O)O)[C@H]1CC[C@H]2[C@@H]3[C@H](O)C[C@@H]4C[C@H](O)CC[C@]4(C)[C@H]3C[C@H](O)[C@]12C	15%&10%&9%	-3%&-3%&1%	0%&0%&1%	-2&-1
27	CCN(CC)C(=O)N1CCN(C)CC1	7%	-2%	-23%	32*
28	OC(CNCC1CCCO1)Cn1c2ccc(Cl)cc2c2cc(Cl)ccc21 (stereo not drawn)	-13%	-6%	-7%	13
29	Cc1cc(C2CCCCC2)n(O)c(=O)c1	-22%	-6%	0%	-15
30	CNC(C)C(=O)NC(C(=O)N1CCCC1C(=O)NC1CCCc2ccccc21)C(C)C (stereo not drawn)	-9%	5%	-5%	-31
31	Cc1ccc(C)c(OCCCC(C)(C)C(=O)O)c1	32%	10%	0%	25
32	OC[C@H]1OC(O)[C@H](O)[C@@H](O)[C@H]1O (stereo partly drawn)	18%	7%	-8%	.

entry	USP1 inh	D2 ag	IDH1 R132H inh
25	?	1.7	3%
26	-31%&-29%&-12%	-0.8&-0.2	11%&-6%&-5%
27	14%	0.8	-3%
28	-11%	0.6	3%
29	13%	1.0	-8%
30	-22%	-0.8	-7%
31	-8%	-1.0	10%
32	?	.	-7%

Other entries
entry	Compound	TrxR1 inh	TrxR1 substrate	Pin1 inh	D2 antagonist
33	CC(C)[N+]1(C)[C@@H]2CC[C@@H]1CC(OC(=O)C(CO)c1ccccc1)C2 (stereo partly drawn)	27%	6%	-8%	-15
34	CCc1nnc(NS(=O)(=O)c2ccc(N)cc2)s1	6%	1%	-8%	-9
35	O=c1[nH]c(=O)n([C@H]2C[C@H](O)[C@@H](CO)O2)cc1I	16%	5%	-2%	-3
36	CC(=O)OCC(=O)[C@@]1(O)CCC2C3CCC4=CC(=O)CCC4(C)C3C(=O)CC21C (stereo partly drawn)	10%	2%	5%	14
37	CC(=O)O[C@]1(C(C)=O)CC[C@H]2[C@@H]3C[C@H](C)C4=CC(=O)CC[C@]4(C)[C@H]3CC[C@@]21C	9%&4%	0%&4%	2%&-4%	-28&0

entry	USP1 inh	D2 ag	IDH1 R132H inh
33	-26%	-0.2	-14%
34	-27%	-0.5	-1%
35	-22%	-0.2	-1%
36	-22%	-1.2	8%
37	-20%&-23%	-1.7&0.2	16%&16%

Structural class, those above containing a nitro group on carbon
entry	Compound	TrxR1 inh	TrxR1 substrate	Pin1 inh	D2 antagonist
11	O=C(Nc1ccc([N+](=O)[O-])cc1Cl)c1cc(Cl)ccc1O	?	8%[57.1 µM]	-6%	4
13	Cn1c([N+](=O)[O-])cnc1COC(N)=O	18%	-5%	0%	-24

entry	USP1 inh	D2 ag	IDH1 R132H inh
11	-14%	2.5	10%
13	16%	1.0	-4%

These rows are one share of the data, so the mix of outcomes need not match the whole.
